Assay outcomes as filed in PubChem BioAssay.
NPYLR7 ag: activates Aedes aegypti NPYLR7 receptor | HEK293T NPYLR7/Galpha15, GCaMP6s calcium fluorescence | AID 1259423 | 0.15% of 270,000 active | activation, % at 10 µM; in the data active means activation above about 40%;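 further: 0% = vehicle and 100% = reference agonist at the receptor; some compounds past the cut are filed as inactive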
NPYLR7 ag max-min: further read-out of NPYLR7 ag, marked with its call; activation, %; measured here: Max-Min RFU normalised activation; some inactives read as strong as hits;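 span of the calcium signal over five minutes; 0% = vehicle and 100% = native peptide agonist; compound fluorescence can raise it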
* marks the source's active call; other numbers are inactive results; & = joins results of further samples. This is a subset; rates above refer to the full screens.

molecule	NPYLR7 ag	NPYLR7 ag max-min
CCn1c(C)cc(C(=O)COC(=O)c2c(C)nsc2NC)c1C	1	5
CC(C)c1nc(CSCC(O)CO)no1 (stereo not given)	23	14
COCCN(Cc1c(-c2cccc(C)c2)noc1N1CCCC1)C(=O)Nc1ccc(C)cc1	5	8
CC1CCCC(C)N1C(=O)CN1C(=O)NC(C)(c2cc3ccccc3o2)C1=O (stereo not given)	11	8
Cc1ccc(NC2=C(N3CCCCC3)C(=O)c3ccccc3C2=O)cc1	-2	1
C#CCNC(=O)c1cc(-c2ccc(OCC)cc2)nc2ccccc12	6	0
CC(=O)C(C)n1c(N2CCN(C)CC2)nc2c1c(=O)[nH]c(=O)n2C (stereo not given)	12	10
OC(c1ccccc1)c1nccc2ccccc12 (stereo not given)	16	8
Cn1cc(CN2CCN(C3CCS(=O)(=O)C3)CC2)c(-c2cccc(Cl)c2)n1 (stereo not given)	1	-1
CCc1cc(N2CCN(C(C)=O)CC2)nc(SCc2cccc(C(=O)NCc3ccco3)c2)n1	-3	6
CN1C(=Cc2c([N+](=O)[O-])cc([N+](=O)[O-])cc2[N+](=O)[O-])C(C)(C)c2ccccc21	-8	-13
Cc1ccccc1NC(=O)COc1coc(CN2CCc3ccccc3C2)cc1=O	0	-2

Reformatted: 6 of the compounds above
Second line of a record – NPYLR7 ag	NPYLR7 ag max-min
> CCn1c(C)cc(C(=O)COC(=O)c2c(C)nsc2NC)c1C
  1	5
> CC(C)c1nc(CSCC(O)CO)no1 (stereo not given)
  23	14
> COCCN(Cc1c(-c2cccc(C)c2)noc1N1CCCC1)C(=O)Nc1ccc(C)cc1
  5	8
> CC1CCCC(C)N1C(=O)CN1C(=O)NC(C)(c2cc3ccccc3o2)C1=O (stereo not given)
  11	8
> Cc1ccc(NC2=C(N3CCCCC3)C(=O)c3ccccc3C2=O)cc1
  -2	1
> C#CCNC(=O)c1cc(-c2ccc(OCC)cc2)nc2ccccc12
  6	0

Quoted at random: two records from the list.
molecule	NPYLR7 ag	NPYLR7 ag max-min
COCCN(Cc1c(-c2cccc(C)c2)noc1N1CCCC1)C(=O)Nc1ccc(C)cc1	5	8
CN1C(=Cc2c([N+](=O)[O-])cc([N+](=O)[O-])cc2[N+](=O)[O-])C(C)(C)c2ccccc21	-8	-13

Carrying on.
molecule	NPYLR7 ag	NPYLR7 ag max-min
COc1ccc(Cl)cc1/C=C1\C(=O)N(c2ccc(Cl)c(C(=O)O)c2)N=C1C	-13	-22
Cc1ccc(CNC(=O)C(C)(C)n2cc(-c3ccc(C)cc3C)cn2)cc1	6	7
CC(=O)N1CCc2c(nc(N(C)C)nc2N(C)CC2CCCO2)C1 (stereo not given)	-6	-6
COc1ccc(C(=O)N2CCC3(CN(C)C(=O)O3)C2)cc1O (stereo not given)	6	3
COc1ccc2c(c1)C1(NCCS1)C(=O)N2Cc1ccccc1Cl (stereo not given)	-2	3
CCOC(=O)C1(Cc2ccccc2F)CCCN(C(=O)C2=CCCC2)C1 (stereo not given)	-6	-6
COCCNC(=O)c1coc(CN(Cc2ccc(Cl)cc2)Cc2cccc(C(F)(F)F)c2)n1	15	22
O=c1cc(CSc2nc3ccccc3c3nc4ccccc4n23)nc2ccccn12	8	7
Cc1c(Cc2ccccc2)c(=O)n2c([nH]c3ccccc32)c1C#N	4	2
CCC(C(=O)N(Cc1nc2cc(C)ccc2o1)Cc1cc(F)ccc1F)c1ccccc1 (stereo not given)	2	3
COC(=O)[C@H]1C[C@@H](O)CCN1C(=O)Cc1ccc(OC)c(C)c1	0	-12
COc1ccc(S(=O)(=O)Nc2ccc(N3CCCC3)c(F)c2)cc1C(=O)O	0	-2

Other structures
molecule	NPYLR7 ag	NPYLR7 ag max-min
CC(C)N(Cc1nc(C(=O)N[C@H]2CCCCNC2=O)cs1)C(=O)Nc1ccc(Cl)cc1	-4	-13
O=C(NC1CCc2[nH]c3cc(Cl)cc(Cl)c3c2C1)c1ccc2ncsc2c1 (stereo not given)	4	17
Oc1oc(-c2ccccc2)nc1C=Nc1ccc(Cl)cc1	-6	-14
O=[N+]([O-])c1c(NCCCO)cc(Nc2ccc(F)cc2)c2nonc12	-1	-4
Cn1c(=O)c2c(N3CCC(C(N)=O)CC3)ccnc2n(C)c1=O	6	3
Cc1cc(SCc2ccc(F)cc2)nc(=O)[nH]1	-2	-2
CCCCC(=O)N(C)c1c(C)nc2ccc(C(=O)NCCCN(C)C)cn12	6	-6
Cn1ccnc1C(NC(=O)CCl)c1ccccc1 (stereo not given)	15	7
CCOc1ccc(C(=O)Nc2c(C)nc3ccc(C)cn3c2=O)cc1	3	2
Cn1c(Cl)cnc1COC(=O)CCNC(=O)C1CCCC1	1	0
CC(=O)c1cc2cc(Br)cc(Br)c2oc1=O	4	3
Cc1ccc(Cl)cc1Nc1ncccc1C(=O)Nc1cccc(Cl)c1	-10	-13

Following part
molecule	NPYLR7 ag	NPYLR7 ag max-min
O=C1CCn2c(CNc3ccc(O)cc3)ccc21	8	1
O=C(CNC(=O)c1ccccc1)Nc1nc(CN2CCCCC2)cs1	3	-1
CCCCN(C(C)=O)c1c(CC)nc2ccc(C(=O)NCCc3ccccn3)cn12	7	-3
C[C@H]1C(=O)N(C)CCN1Cc1cn(C)nc1-c1ccc(Oc2ccccc2)cc1	7	2
COCc1c(C(=O)N2CCc3c(ncnc3N3CCOCC3)C2)noc1C	6	2
CCN(CCc1nc2ccc(C)cc2[nH]1)S(=O)(=O)NCc1ccccc1	6	3
O=C(Nc1ccc2c(c1)OCO2)C1Cc2c(-c3ccccc3Oc3ccccc3)ccnc2O1 (stereo not given)	3	4
NC(=O)C1CCN(C(=O)C2(c3cccs3)CCCCC2)C1 (stereo not given)	3	4
CC(C)C(NC(=O)Cn1nnc(-c2ccccc2)n1)c1cccs1 (stereo not given)	2	2
C=CCn1c(=N)n(N)c2ccccc21	4	6
CC1CN(c2cc(Cl)nc(SCC(=O)NC(Cc3ccccc3)c3ccccc3)n2)CCN1C(=O)c1ccc(Cl)cc1 (stereo not given)	3	9
CCc1cccc(OCc2nc(C(=O)N3CCOCC3)cs2)c1	8	-3

The listing continues:
molecule	NPYLR7 ag	NPYLR7 ag max-min
COc1ccc(OC)c(N2CCN(C(=O)c3ccc(Cl)cc3Cl)C(C)C2=O)c1 (stereo not given)	-1	1
Cc1ccc(-c2nnc(CSc3nnc(C(C)Oc4ccc(Cl)cc4C)o3)o2)cc1 (stereo not given)	-9	-13
CC(C)NC(=O)N1CCCC(CNC(=O)c2ccccc2Cl)C1 (stereo not given)	1	-2
COc1ccc2nc(-c3ccc(F)c(NC(=O)Nc4cc(Cl)ccc4OC)c3)cn2n1	16	10
CCC(C)c1ccccc1N(C(=O)CCl)C(=O)CCl (stereo not given)	0	0
Cc1ccc(NC(=O)CSc2c(C(C)C)cnc3c2c(=O)n(C)c(=O)n3C)cc1	16	24
Cn1cc(CN(CC2CCN(C3CCCC3)CC2)CC2CCCO2)cn1 (stereo not given)	3	3
COc1ccc2c(=O)c3c(=O)n(Cc4ccco4)c(C4CCCCC4)nc3oc2c1	7	7
O=C(CC(c1ccc(Cl)c(Cl)c1)c1c[nH]c2ccccc12)N1CCN(c2ccccc2F)CC1 (stereo not given)	8	18
COc1cc(OC)cc(-c2noc(Cn3ccn4nc(-c5cccs5)cc4c3=O)n2)c1	0	-2
CCCc1ccc(S(=O)(=O)NNC(=O)Cn2c(C)csc2=O)cc1	3	5
Cc1ccc(Cl)cc1-n1c(SCc2ccc(F)cc2)nnc1C(Cc1ccccc1)NS(=O)(=O)c1ccc(F)cc1 (stereo not given)	-5	0

The list goes on:
molecule	NPYLR7 ag	NPYLR7 ag max-min
CC1=C(c2ccc(C)cc2)S(=O)(=O)NC1=NCc1ccc2c(c1)OCO2	3	1
Cc1nc(C)c(C(C)N(C)C(=O)NCCc2ccccc2)s1 (stereo not given)	7&6	1&5
COc1ccc(CCOc2nc(-c3ccc(C(F)(F)F)cc3)n(-c3cccc(NC(=O)c4cccs4)c3)n2)cc1	23	11
CCCN(C)c1cc(C)nc(SCc2ccc(C(=O)NCc3ccccn3)o2)n1	1	3
COc1cccc(OCc2ccc(Cn3nc(NC(=O)NCc4ccccc4OC)c4ccccc43)cc2)c1	10	18
C=CCN1Cc2cc(F)ccc2N(CC(O)Cc2ccccc2)CCC1=O (stereo not given)	19	23
O=C(c1c(F)cccc1Cl)N1CCOC(COCc2c(Cl)cccc2Cl)C1 (stereo not given)	3	3
CN1C(=O)COc2ccc(C(=O)NCc3cnn4ccccc34)cc21	8	-2
COCCn1nc(C(=O)N(C)CCOc2cc(C)cc(C)c2)ccc1=O	9	11
O=S(=O)(NCc1ccc2c(c1)OCO2)c1cc(C(F)(F)F)ccc1Cl	-2	-3
O=C(Nc1ccc(-c2ccco2)cc1)C1CCCN(C(=O)CCc2cnccn2)C1 (stereo not given)	-1	-2
Cc1nc2c(c(NCCc3ccccc3C(F)(F)F)n1)CNC2	11	5

New compounds follow.
molecule	NPYLR7 ag	NPYLR7 ag max-min
O=C(NCc1cccc(Cl)c1)c1ccc(-c2n[nH]c3c2CCCc2ccccc2-3)cc1	2	14
CC(=O)Nc1ccsc1C(=O)N1CCCC(N(C)Cc2ccccc2)C1 (stereo not given)	4	0
COCC(=O)N1CCN(C(C(=O)NCc2ccc(F)cc2)C2CCCC2)CC1 (stereo not given)	9	13
Cc1ccc(S(=O)(=O)N2CCN(C(=O)c3ccco3)CC2)cc1	1	-1
Cc1cc(Nc2ccc3c(c2)OCCO3)nc(-n2nc(C)cc2C)n1	2	4
CCn1cc(CNc2ncnc3c2CCN(C(=O)c2cccnc2)C3)cn1	4	1
CCOc1ccc(C(=O)N2CCn3nc(C(=O)N4CCOCC4)cc3C2)o1	-6	-9
Cc1cc(N2CCCCC2)n2nc(C(F)(F)F)c(-c3ccccc3)c2n1	-5	-8
CCn1c2ccccc2c2nnc(SCC(=O)NC(C)C(C)C)nc21 (stereo not given)	12	3
CCc1ccc(NC(=O)c2c(-c3ccccc3)noc2C)cc1	-3	-3
Cc1ccc(C)c(NC(=O)COc2ccc3c(c2)OCCO3)c1	6	5
Cc1ccccc1-c1n[nH]c(=S)n1-c1ccccc1C	-5	-2

Other structures follow.
molecule	NPYLR7 ag	NPYLR7 ag max-min
Cc1oc2cc(OC(=O)CNC(=O)OC(C)(C)C)ccc2c(=O)c1Oc1ccccc1	0	-6
COc1cc(S(=O)(=O)NCCC23CC4CC(CC(C4)C2)C3)c(C)cc1C	-3	-3
COC(=O)N=c1c(C#N)nc(-c2ccccc2)cn1CCc1ccccc1	24	32
Cc1ccsc1[C@@H]1CCN(Cc2ccc(-c3ccn[nH]3)o2)C[C@H]1O	2	-2
CC#CC1(OC(C)=O)CCC(c2ccccc2)CC1 (stereo not given)	3	4
N#Cc1ccccc1S(=O)(=O)N1CCC(C(=O)NC(c2ccccc2)C2CC2)CC1 (stereo not given)	-1	16
Cc1ccccc1C(=O)N(Cc1cccnc1)c1nc2cc3c(cc2s1)OCCO3	-2	5
COC[C@@H]1CCCN1C(=O)C1C2C=CC3(CN(c4cc(C)on4)C(=O)C13)O2 (stereo not given in full)	2	14
Cc1ccc(S(=O)(=O)Oc2cccc3cccnc23)cc1	2	3
CC1CN(c2nc3c(c(=O)[nH]c(=O)n3C)n2CCCSc2nc3ccccc3o2)CC(C)O1 (stereo not given)	1	0
CC(C)CNC(=O)C1(C)CCCN1C(=O)c1cc2ccccc2s1 (stereo not given)	-2	-3
CCSc1nnc(-c2cn(C)nc2OC)n1C	-1	1

(list continues)
molecule	NPYLR7 ag	NPYLR7 ag max-min
Cc1cccc(C(C(=O)NCCSc2nccn2C)N(C)C)c1 (stereo not given)	24	13
COc1cccc(CN2CCCN(c3ccncc3C)CC2)c1O	8	2
CC(=O)NC(c1ccc(F)cc1)c1cccnc1 (stereo not given)	6	6
CN(CC12CC3CC(CC(C3)C1)C2)C(=O)c1cc(-c2ccco2)[nH]n1	11	7
COc1ccc(C(=O)Nc2c(C)nc3ccc(C)cn3c2=O)cc1OC	-2	-3
COc1cccc(-c2cc3c(cn2)ncn3Cc2ccc(OC)c(OC)c2)c1	39	21
Cc1cc(C)n(-c2nc(-c3ccccc3)cc(-c3ccccc3O)n2)n1	-7	-13
Clc1cncc(Oc2nc3ccccc3nc2Oc2cncc(Cl)c2)c1	10	14
CSc1ncc(C(=O)NCCS(=O)(=O)N(C)C)cn1	33	21
O=C1CC2(CCN(C(=O)NCCc3ccccc3)CC2)CN1	3	3
Cc1cc(S(=O)(=O)NC2CCCC2)ccc1F	8	7
CC1CCCN(S(=O)(=O)c2ccc3c(c2)nc(SCc2cccc(Cl)c2F)n3C2CCCC2)C1 (stereo not given)	12	5

Additional compounds.
molecule	NPYLR7 ag	NPYLR7 ag max-min
CN1C=CC(=C/C=C2/C=Nc3ccccc32)C=C1	54*	67*
CCC1CCCN(c2ncc(Br)cc2CO)C1 (stereo not given)	5	4
COc1cccc(-c2c(C(N)=O)c(C)nc3sc4c(c23)CCC(C)C4)c1OC (stereo not given)	7	0
CCOC(=O)CN(C(=O)c1csc(-c2cccs2)n1)[C@@H]1C[C@@H]2CO[C@H](C(C)C)C[C@@H]2C1	19	18
CC1(C)CC(=O)C=C(Nc2sc3c(c2C#N)CCCC3)C1	-2&-1	-4&-3
CC(C)NC(=O)CN(C)CC(N)=S	2	10
Cc1cc(N2CCCCC2)nc(Nc2ccc(NS(=O)(=O)c3ccc4nc(C)sc4c3)cc2)n1	0	-4
CC(NCc1cccc(OCc2nc(CO)cs2)c1)c1ccccc1 (stereo not given)	19	17
CCSc1nc2nc3c(cn2n1)C(=O)CC(c1ccco1)C3 (stereo not given)	34	31
COc1cc(C(=O)N2CCN(C(=O)NCc3nncn3C)CC2)ccc1C	12	10
Cc1noc(C)c1CN(C)C(=O)c1ccc(CSc2ncccn2)o1	13	10
